Calb FLC = affects C. albicans growth with fluconazole | C. albicans CaCi-2 (fluconazole-resistant clinical isolate) + fluconazole, Alamar Blue growth, 48 h | growth inhibition, % (test concentration not listed) | 0.57% of 300,000 active | AID 1979;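 active means most replicates above 75%; inconclusive means exactly half above 75%; inactive means most below 75%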;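 further: all wells also contain fluconazole at 8 µg/ml as a sub-toxic cotreatment; 0% = median of DMSO wells and 100% = median of geldanamycin control wells; wells of about 8 µL received 7.5 nL stock; the first replicate is given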
Vif A3G = HIV-1 Vif–A3G interaction blockers – biochemical, TR-FRET, GST-Vif 1-94, biotin-A3G peptide, dose response retest, primary screen (AID 1117319); TR-FRET GST-Vif / biotin-A3G peptide binding; higher % means a stronger effect; test concentration not given here; strong numbers were not always called active; inhibition, %, or IC50 in µM where a hit was titrated; 0.57% of 260,000 active;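 active means above the screen mean plus three standard deviations and confirmed in dose response; inconclusive means results disagree or hit not tested in dose response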;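 further: Vif residues 1-94 fused to GST binding biotinylated APOBEC3G peptide 110-148; 0% = full assay without inhibitor and 100% = GST in place of GST-Vif; retest series ran down from 100 µM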
Beta2AR agonist = agonists of human beta-2 adrenergic receptor inducing internalization; P07550; Am2.2-beta2AR cells, FAP receptor internalization, flow cytometry; reference of the scale not given here; response, % (concentration not given with the values); 0.43% of 340,000 active; AID 504454;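 active means response above a set limit, near 3 SD of response in nonfluorescent compounds, cut at about 42% in these data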;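 further: stock transfer was 100 nL into about 11 µL; a reference agonist was the positive control; negative values mostly stem from fluorescent compounds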
LANA-H2B inh = blocks KSHV LANA binding to histone H2A/H2B | inhibition, % (no concentration beside the values) | 0.6% of 320,000 active | Q9QR71 | cell-free LANA-H2A/H2B peptide, fluorescence polarization; in the data active means inhibition mostly above about 10%, no sharp cut-off; inactive means mostly below about 6.7%;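 further: stock transfer was 7.5 nL into about 10 µL; 0% = median of vehicle wells and 100% = median of positive control wells; one replicate is shown; the record names a cut of 25% in any replicate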
RanGTP-Imp inh = inhibitors of RanGTP-importin-beta interaction, primary screen, biochemical, FRET, CFP-Ran, YFP-importin-beta, homogeneous. cell-free CFP-Ran/YFP-importin-beta FRET ratio. inhibition, % (no concentration beside the values). 1.1% of 300,000 active. AID 2216;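 active means most replicates above 15%; inconclusive means exactly half above 15%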;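 further: 0% = DMSO wells and 100% = Ran loaded with GDP instead of GTP; wells of about 40 µL received 100 nL stock; the first replicate is given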
HNF4A DNA FP = change in binding of human HNF4 alpha to DNA | AID 1224865 | 0.3% of 360,000 active | activity change, % at 10 µM | HNF4a-FITC DNA binding, fluorescence polarization, 1 h | P41235; in the data active means activity change above about 30%, passing the limit was not always enough;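 further: controls were the assay level and a saturating level of protein; the project sought stronger binding though the title names inhibitors; some compounds called inactive have numbers as strong as hits; positive values seem to mean higher polarization but the record does not say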
Target sequence (P41235 whole entry, looked up): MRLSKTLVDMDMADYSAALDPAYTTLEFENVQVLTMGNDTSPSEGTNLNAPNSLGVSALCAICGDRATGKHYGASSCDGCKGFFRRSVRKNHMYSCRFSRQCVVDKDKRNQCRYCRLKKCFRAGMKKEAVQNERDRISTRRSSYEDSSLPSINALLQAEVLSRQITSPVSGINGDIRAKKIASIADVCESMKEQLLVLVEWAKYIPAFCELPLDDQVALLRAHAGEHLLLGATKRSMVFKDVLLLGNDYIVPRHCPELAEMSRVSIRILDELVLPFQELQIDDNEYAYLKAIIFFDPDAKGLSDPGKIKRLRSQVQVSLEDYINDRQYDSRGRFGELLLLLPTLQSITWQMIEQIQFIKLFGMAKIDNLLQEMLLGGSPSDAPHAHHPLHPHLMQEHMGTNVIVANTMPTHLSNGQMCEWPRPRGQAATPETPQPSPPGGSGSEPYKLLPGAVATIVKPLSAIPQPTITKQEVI
ALR H2O2 inh = inhibitors of human sulfhydryl oxidase ALR; P55789; purified ALR, DTT oxidation, H2O2 HRP-luminol luminescence; inhibition, % (test concentration not listed); 3.8% of 290,000 active; AID 485317;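 active means mean and each replicate at 75% or more; inconclusive means only one of the two met; inactive means neither met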;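 further: stock transfer was 7.5 nL into about 7.5 µL; 0% = neutral wells and 100% = wells with inactivated enzyme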
Target sequence (P55789 whole entry, looked up): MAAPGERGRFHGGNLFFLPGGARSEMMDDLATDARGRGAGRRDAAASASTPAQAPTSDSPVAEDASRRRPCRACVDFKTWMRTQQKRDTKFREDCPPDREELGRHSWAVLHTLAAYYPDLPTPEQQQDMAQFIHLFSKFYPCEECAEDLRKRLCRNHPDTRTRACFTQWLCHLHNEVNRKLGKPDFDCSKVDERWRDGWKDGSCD
Numbers without * were called inactive; ? = inconclusive; nt = not tested or not shown. No enrichment for hits; about 6.3% have a hit in one of these screens.

Value order: HNF4A DNA FP, RanGTP-Imp inh, Beta2AR agonist, Vif A3G, LANA-H2B inh, Calb FLC, ALR H2O2 inh
- COc1ccc(S(=O)(=O)N2CCC(C(=O)NCCC(=O)Nc3ccc(Cl)cc3)CC2)cc1
    -3.0, -3.8, -9.3, -4.1%, 9.7, 3.0, -32.5
- CC(=O)Nc1cccc(NC(=O)c2cc(-c3cccnc3)nc3ccc(Cl)cc23)c1
    16.9, 1.2, 5.0, 4.1%, -0.5, 20.1, -2.9
- Cc1ccc2cc(C=C(C#N)C#N)c(N3CCCCC3)nc2c1
    -3.0, 2.4, 27.8, -7.3%, 1.3, 58.2*, 46.2
- CC(C)CN(C(=O)CN1CCN(c2ccc([N+](=O)[O-])cc2)CC1)c1c(N)n(CC(C)C)c(=O)[nH]c1=O
    3.7, 3.1, 2.6, 13.2%, 0.0, 7.2, 35.2
- COc1ccccc1NS(=O)(=O)c1cc(NC(C)=O)ccc1N1CCCCC1
    3.0, -3.2, 0.2, -0.7%, 2.3, 14.9, 63.6
- O=C(COc1ccccc1Cl)NCCCNC(=O)c1cccnc1
    -0.9, 0.7, -3.7, nt, -2.0, -0.7, -13.7
- O=Cc1cccn1-c1ncc(Br)cn1
    -3.5, 2.4, -6.6, 5.1%, -0.7, 4.6, -2.6
- CCn1ccnc1CN1CCCC(C(=O)c2ccc3cc(OC)ccc3c2)C1 (configuration not stated)
    2.8, 1.4, -3.3, -2.4%, 1.0, 8.2, -30.6
- O=C(Nc1ccccc1C(=O)OCn1nnc2ccccc2c1=O)c1ccco1
    -2.5, ?, -2.9, 2.9%, 0.4, 1.7, 4.2
- CN(C(=O)Cn1cnc([N+](=O)[O-])n1)C1CCCCC1
    1.5, 0.3, 0.7, 3.5%, 4.5, 1.3, -28.4
- COc1ccccc1N1CCN(CC(=O)c2c[nH]c3ccccc23)CC1
    3.5, 0.9, 15.5, 13.6%, -3.3, 0.2, -3.3
- COc1cc(CN(C)c2ncnc3sccc23)ccc1OC(F)F
    3.5, 3.5, -12.3, nt, 16.5*, 5.6, nt
- O=C(NCc1ccccc1Cl)c1cnn2cccnc12
    5.5, 5.8, -3.1, -0.2%, 3.7, 8.0, nt
- Cn1c(C(=O)N2CCCC(C(=O)NCc3ccccc3)C2)cc2sccc21 (configuration not stated)
    -2.1, 0.7, -1.1, -4.3%, 3.3, -5.2, -3.3
- CCn1c(COc2ccc(OC)cc2)nc2ccccc21
    -2.6, -2.3, -6.6, 0.3%, 4.6, -7.1, -4.0
- O=C1N=C(N2CCc3ccccc3C2)S/C1=C\c1ccc(O)cc1
    -1.7, -3.0, -0.5, nt, -55.1, -7.0, ?
- CC(C)(C)C(=O)NCc1ccc(C(=O)CSc2nnc(C3CC3)n2C2CC2)s1
    -0.7, nt, -0.7, 0.5%, nt, nt, 18.2
- CCCCc1nnc(NC(=O)C2=COCCO2)s1
    -0.3, 3.1, 5.2, nt, -3.2, 4.5, 5.2
- Cc1ccc2nc(SC(C)C(=O)N3CCOCC3)[nH]c2c1 (configuration not stated)
    3.2, 0.3, 0.9, -1.4%, -2.1, 5.6, -5.7
- O=C(CSc1nc2nn(-c3ccccc3)c(=O)c-2c2n1CCCCC2)Nc1ccc(F)c(F)c1
    1.2, nt, 1.9, 5.2%, 1.5, nt, 49.2
- O=C(NCCCN1CCOCC1)c1ccc2c(c1)N(Cc1ccccc1)CCS2
    -1.7, 6.2, -6.8, 2.9%, 0.8, -2.0, 99.2*
- N#Cc1nc(Nc2cccc(Cl)c2)c2ncn(C3CCCC3)c2n1
    2.8, nt, 8.0, nt, -5.9, nt, 0.5
- COc1ccc(-c2ccc(NC(=O)c3ccco3)cc2)nn1
    2.7, 1.4, -8.4, -0.8%, -1.4, 13.1, -8.2
- COc1cc(-c2nnc3sc(Cc4ccccc4)nn23)cc(OC)c1OC
    2.6, -4.0, -6.9, ?, -3.4, 7.3, 0.4
- CCN(CC)CCCN1C(=O)C(O)=C(C(C)=O)C1c1cccc(OC)c1 (configuration not stated)
    nt, -2.7, nt, 2.0%, nt, -10.8, nt
- COc1cc([N+](=O)[O-])ccc1NC(=O)NCC1CCN(Cc2ccc(Cl)cc2)CC1
    1.4, 4.5, 5.0, 1.0%, -2.5, -12.6, -4.2
- COc1cccc(C(=O)NNC(=S)NC2CCCCC2)c1
    -1.4, -0.6, 4.1, -1.4%, nt, -17.6, nt
- CCc1nnc(NC(=O)c2ccc(F)c(S(=O)(=O)N3CCCCC3)c2)s1
    -0.9, -0.2, -2.4, nt, nt, -1.7, nt
- Oc1c(C=Nc2cccc3cccnc23)sc2ccccc12
    nt, 39.2*, nt, 14.8%, -6.3, -4.7, -36.7
- COc1ccc(OC)c(Cc2nnc(CCC(=O)N3CCN(C4CCCC4)CC3)o2)c1
    7.7, 1.1, -9.1, nt, -10.8, 23.0, -10.6
- CCCC(=O)C1=C(O)C(C(=O)OC)C(C)(C)CC1=N (configuration not stated)
    2.1, -1.9, 5.8, -7.8%, -0.1, 3.0, nt
- O=C(NC(=O)c1ccccc1N1CCCCC1)Nc1ccc(Br)cc1
    2.1, 1.2, -23.2, -7.1%, 0.8, -7.1, -26.4
- COc1cccc(Nc2nc(-c3sc(NC(=O)CC(C)C)nc3C)cs2)c1
    0.4, 1.2, 23.4, 0.5%, -3.6, -6.9, 5.0
- O=C(Cn1cc([N+](=O)[O-])cn1)NCc1ccccc1Cl
    2.2, 1.5, -8.9, nt, 2.7, 7.5, -1.5
- CC1(C)CC(=O)C/C(=N\NC(=O)C2CC2c2ccccc2)C1 (configuration not stated)
    0.1, -0.3, 2.0, 8.2%, 2.4, -1.0, 44.4
- COc1cccc(CNC(=O)C2Cc3cc(S(=O)(=O)N4CCCC4)ccc3N2C(C)=O)c1OC (configuration not stated)
    11.2, 2.5, 5.3, nt, -3.1, -0.8, -2.2
- Cc1ccc(S(=O)(=O)NC(=O)NC(C)Cc2ccccc2)cc1 (configuration not stated)
    3.2, 1.3, -1.1, nt, 0.3, 29.1, -6.3
- c1ccc2[nH]c(SCC3CCCCO3)nc2c1 (configuration not stated)
    -1.9, 2.6, -0.8, 3.1%, -1.9, -2.3, 32.5
- Fc1ccc(/C=N/NC(=S)NCCc2ccccc2)cc1F
    3.0, 4.6, -1.1, nt, 1.0, -6.8, -12.2
- O=C(c1cc2ncc(CCCl)cn2n1)N1CCCCCC1
    5.2, -4.0, -20.2, nt, 5.4, -9.6, -6.2
- CS(=O)(=O)N1CCN(c2ccccc2NC(=O)c2cc3ccccc3o2)CC1
    0.9, 4.6, 8.5, nt, 0.4, 10.1, -9.4
- C[C@H](NC(=O)c1nc[nH]c1C(=O)OCc1ccccc1)c1ccccc1
    3.0, nt, -3.0, nt, -0.3, nt, -12.6
- CN1CCC(OC(=O)c2cc3cc(Cl)cc(Cl)c3oc2=O)CC1
    2.9, -3.7, 9.8, nt, 2.8, 0.6, 15.3
- COc1cc(CC(=O)OCC(=O)NCc2ccc(C)cc2)cc(OC)c1OC
    -2.2, nt, 3.4, -3.5%, -3.6, nt, nt
- COc1cc(CC(CC(=O)c2ccc3c(c2)OCO3)C(=O)O)cc(OC)c1OC (configuration not stated)
    3.4, nt, 0.0, -1.9%, nt, nt, nt
- CCCCOc1ccc(Br)cc1CSC(=N)N
    4.7, ?, 17.3, nt, nt, -22.7, nt
- OCC1OC2C(NC(=S)N2c2ccccc2)C(O)C1O (configuration not stated)
    -5.5, nt, -6.4, -3.5%, nt, nt, nt
- CSCCC(NC(=O)c1ccco1)C(=O)Nc1ccc(C)cn1 (configuration not stated)
    -1.8, -0.9, -1.2, 2.4%, -5.1, -0.1, 4.8
- C(=N\NCc1ccccc1)/c1ccc2ncccc2c1
    -3.0, 1.8, -9.1, ?, 0.0, 22.5, nt
- Cc1ccsc1/C=N/Nc1ncc(Cl)cc1Cl
    -1.9, 0.1, 17.2, -8.3%, -0.3, -9.0, 10.7
- O=C(CN1CCN(Cc2ccccc2F)C1=O)NCC1CCCO1 (configuration not stated)
    -1.8, -1.0, -4.7, 27.8%, -4.0, 4.4, nt
- Cc1ccc(C(=O)c2cnc3cc4c(cc3c2S(=O)(=O)c2ccccc2)OCCO4)cc1
    -1.0, 1.7, 4.5, nt, -0.1, 9.9, 0.7
- COc1ccc(NC(=O)Cn2c(C)csc2=O)c(OC)c1
    3.5, nt, 8.2, -3.8%, 0.7, nt, -5.7
- NC(=O)C1(c2ccccc2)CCOCC1
    0.8, -4.0, -1.4, -1.9%, 4.6, -14.2, -12.3
- O=C(C1CC1)N(Cc1ccco1)c1nc(-c2ccccc2)cs1
    -2.2, ?, 12.9, 1.6%, 1.2, 9.9, 11.7
- O=C(Nc1ccc2c(c1)OCO2)N1CCOCC1
    2.0, 10.4, 0.7, 14.3%, 2.2, -10.7, -19.3
- O=[N+]([O-])c1ccccc1/C=C/C=N/n1c(-c2ccccc2F)n[nH]c1=S
    0.9, 1.3, -2.2, nt, -0.8, -3.4, 98.0*
- Cc1ccc(C2C(C(=O)c3sc(-c4ccccc4)nc3C)=C(O)C(=O)N2CCN(C)C)o1 (configuration not stated)
    1.6, nt, 2.3, -6.7%, nt, nt, nt
- COc1cc(C(=O)N2c3ccccc3CCC2C)cc(OC)c1OC (configuration not stated)
    0.2, -3.8, 2.2, nt, 3.6, -2.5, -15.5
- O=C(N/N=C/C=C\c1ccccc1[N+](=O)[O-])c1ccncc1
    -0.1, ?, 14.9, nt, -0.9, -1.9, -18.6

Additional structures follow.
Value order: HNF4A DNA FP, RanGTP-Imp inh, Beta2AR agonist, Vif A3G, LANA-H2B inh, Calb FLC, ALR H2O2 inh
- CC(=O)c1cccc(NC(=O)C(C)OC(=O)/C=C/c2cccs2)c1 (configuration not stated)
    -4.1, nt, -7.4, -3.0%, nt, nt, nt
- Cc1ccc(NC(=O)CSc2ncccc2C(=O)Oc2cccc([N+](=O)[O-])c2)cc1Cl
    2.4, -2.2, 5.2, 4.7%, 6.7, -1.2, 0.5
- CCOC(=O)C1CCN(CC(O)COc2ccc(C(=O)CC)cc2)CC1 (configuration not stated)
    -2.5, -3.9, -7.5, 1.1%, 0.4, ?, -16.6
- CN(C)S(=O)(=O)c1cccc(NC(=O)COc2cccc(C#N)c2)c1
    -2.6, -1.9, 1.6, -8.5%, 0.5, -3.7, -36.8
- Cc1ccc(-n2[nH]c(C)c(C=Nc3cc(C)ccn3)c2=O)cc1
    -5.1, 1.8, -8.7, 3.9%, 1.5, -3.8, -6.0
- Cc1cccc(OCC(=O)N2CCN(C(=O)c3ccc([N+](=O)[O-])cc3)CC2)c1
    5.5, -2.0, 0.6, 8.0%, 2.8, 11.1, -10.0
- CS(=O)(=O)N1CCN(C2C3CC4CC(C3)CC2C4)CC1 (configuration not stated)
    2.7, 0.9, -4.2, 5.3%, -5.9, -19.3, -1.7

Compound activity: PubChem, several laboratories
